Rango dissoc inh: qHTS Assay for Inhibitors of RanGTP induced Rango (Ran-regulated importin-beta cargo) - Importin beta complex dissociation; Snurportin-1 (Homo sapiens) + GTP-binding nuclear protein Ran (Homo sapiens) + Importin …; Biochemical FRET Rango-importin beta, RanGTP-induced dissociation; Potency, µM (top dose mostly 46.1 µM), for the others: at the highest dose activity change, negative = inhibition; actives 0.071% (n = 340,000); AID 540253, 2011; active means falling FRET ratio curve, often poorly fitted, with flat reads before Ran was added; inconclusive means other falling curves, or compound fluorescence or quenching; inactive means flat or rising ratio curve;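 also: potency is read from the fitted curve at half-maximal effect; % of control where 0% means no effect; nearly all actives have a fitted effect of over 45% in size; -100% = wells without RanGTP and RCC1; the record marks most hits as doubtful in a second field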
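Rango (0.1 uM)–importin beta (0.25 uM) complex; RanGTP-RCC1 trigger; 45 min RT; CFP/YFP FRET read.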
Rango complex inh: qHTS Assay for Inhibitors of Rango (Ran-regulated importin-beta cargo) - Importin beta complex formation | Rango CFP/YFP FRET sensor + importin beta, 45 min | Potency, µM (highest dose often 92.2 µM), for inactives: at the highest dose inhibition of complex formation | actives 0.031% (n = 340,000) | AID 540263, 2011; active = rising FRET ratio curve, often small or poorly fitted; inconclusive = mostly compound fluorescence or quenching in the first reads; inactive = flat curves in all reads;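 also: potency is read from the fitted curve at half-maximal effect; 0% = DMSO wells and 100% = buffer wells lacking importin beta; nearly all actives have a fitted effect of over 15% in size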
Target sequence (Q14974 whole entry, looked up): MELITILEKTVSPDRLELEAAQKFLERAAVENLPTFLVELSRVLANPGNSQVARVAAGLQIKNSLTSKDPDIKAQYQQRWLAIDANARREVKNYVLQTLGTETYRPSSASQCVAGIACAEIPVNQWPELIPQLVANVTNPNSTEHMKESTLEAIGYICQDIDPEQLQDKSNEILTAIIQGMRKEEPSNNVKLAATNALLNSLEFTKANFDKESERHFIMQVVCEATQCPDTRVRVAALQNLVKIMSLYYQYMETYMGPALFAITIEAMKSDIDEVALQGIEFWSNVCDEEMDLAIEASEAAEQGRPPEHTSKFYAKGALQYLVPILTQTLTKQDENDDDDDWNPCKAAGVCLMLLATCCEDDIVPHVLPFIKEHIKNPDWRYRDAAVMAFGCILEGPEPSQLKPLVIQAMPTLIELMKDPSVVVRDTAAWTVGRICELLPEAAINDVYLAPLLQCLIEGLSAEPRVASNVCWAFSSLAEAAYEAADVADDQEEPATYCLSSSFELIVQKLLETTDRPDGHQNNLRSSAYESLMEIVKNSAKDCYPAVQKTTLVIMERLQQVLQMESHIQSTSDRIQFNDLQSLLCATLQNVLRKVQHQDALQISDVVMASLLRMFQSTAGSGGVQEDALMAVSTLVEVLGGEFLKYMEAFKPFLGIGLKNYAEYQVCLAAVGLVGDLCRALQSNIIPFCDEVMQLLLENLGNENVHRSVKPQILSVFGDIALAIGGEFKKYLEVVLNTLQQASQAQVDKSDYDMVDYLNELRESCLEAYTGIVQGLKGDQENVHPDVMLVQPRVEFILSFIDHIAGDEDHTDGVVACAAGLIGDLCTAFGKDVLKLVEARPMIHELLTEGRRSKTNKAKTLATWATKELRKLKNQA
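FRET biosensor (snurportin 1 IBB flanked by EYFP and cerulean), 50 nM, with compound 5 min, then 0.125 microM importin beta in PBS, 1 mM DTT, 0.02% Tween-20, 0.1% BSA. CFP/YFP ratio read after 45 min at room temperature; pre-read flags interference.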
GLA inh pH 4.5: qHTS Assay for Inhibitors of Human alpha-Galactosidase at pH 4.5 | 230,000 tested, under 10 active | AID 1467, 2008 | purified enzyme, 4-MU-alpha-Gal fluorescence, pH 4.5 | activity change, negative = inhibition, % at 105 µM; inconclusive = small, poorly fitted or top-dose-only inhibition, or a rising curve; inactive = flat fitted curve, though single readings scatter; no compound was filed as active;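 also: 0% = full activity with enzyme and -100% = basal without enzyme; dose as in the result columns while the protocol names 77 µM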
miR-21 reporter: qHTS Assay for Modulators of miRNAs and/orActivators of miR-21; HeLa miR-21 FLuc reporter, luciferase, 48 h; Potency, µM (series often up to 38.3 µM), for inactives: at the top dose reporter change, positive = more light; 340,000 tested, under 10 active; AID 2288, 2010; active = well fitted rising curve with a large enough effect; inconclusive = small, poorly fitted or top-dose-only effect; inactive = no such curve, though single readings can be large or run the other way;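 also: % of control where 0% means no effect; miR-21 action dims this reporter so a rising signal means less miR-21 action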
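Compounds were titrated across several concentrations (up to approximately 40 uM) and incubated 48 hours with HeLa miR-21-FLuc reporter cells (miR-21 target sequence downstream of FLuc, endogenous miR-21). Readout was firefly luciferase luminescence after lytic detection reagent.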
* hit, by the source's call; ? = inconclusive; . = no result given; & = joins results of further samples. Not all compounds are listed; count on the stated rates, not on these rows.

miR-21 reporter | Rango complex inh | Rango dissoc inh | GLA inh pH 4.5 | SMILES
. | 0.0% | 7% | . | CCOC(=O)C1=C(COC(=O)c2cc(S(=O)(=O)N3CCOCC3)ccc2F)NC(=O)NC1C (configuration not stated)
. | ? | ? | . | O=C(c1ccco1)N1CCN(C(=O)c2cccn3c(=O)c4c5c(sc4nc23)CCCC5)CC1
-55% | 0.1% | 1% | 2 | CCOC(=O)c1ccc(N=NN(C)C)cc1
-5% | -0.4% | 33% | -1 | Cc1ccc(N/C(N)=N/c2nc(CSc3nnc(N)s3)cc(=O)[nH]2)cc1
0% | 8.9% | -22% | 2 | CCOC(=O)c1c(NC(=O)COC(=O)c2cc(OC)c(OC)cc2[N+](=O)[O-])sc(C)c1CC
9% | -1.8% | -18% | 4 | COc1ccc(-n2cc(CNCCc3ncc(C)[nH]3)c(-c3ccccc3Cl)n2)cc1
-2% | ? | ? | -23 | COc1ccc(OC)c(/C=N/NC(=O)c2cc[n+](CC(=O)c3ccccc3)cc2)c1
-2% | 0.0% | 17% | . | CCCn1c(SCC(=O)NC2CCCCC2)nnc1-c1cccnc1
-4% | -1.0% | 20% | 2 | O=c1c2ccccc2nc2n1C(CSc1ccc(F)cc1)CN2 (configuration not stated)
3% | ? | 18% | 3 | C=CCOC(=O)C1=C(C)NC(=S)NC1c1cccs1 (configuration not stated)
-5% | -1.6% | 2% | -9 | COc1ccc(-c2ccc(S(=O)(=O)N3CCOCC3)cc2)cc1
. | -1.1% | -4% | . | Nc1ccccc1C#Cc1cnccn1
. | 0.0% | -11% | . | CCN(CC(=O)Nc1c(F)cccc1F)C(=O)C1=COCCO1
. | 1.5% | 5% | . | CN(C(=O)COC(=O)C1CCN(S(=O)(=O)c2c(Cl)cccc2Cl)CC1)c1ccccc1
. | -6.6% | -20% | . | Cc1ccccc1C(=O)N1CCC(C(=O)N2CCN(c3ncccn3)CC2)CC1
-6% | ? | -13% | -2 | N#Cc1c(N)n(-c2ccccc2N)c2nc3ccccc3nc12
1% | . | . | -12 | CC(C)N(C(=O)Cn1cnc2cc([N+](=O)[O-])ccc2c1=O)C(C)C
-2% | . | . | 5 | Cc1ccc(N(C(=O)c2ccn[nH]2)C(C(=O)NC2CCCC2)c2cccs2)cc1 (configuration not stated)
-7% | 3.1% | 10% | -2 | COc1ccc(/C=C/C(=O)OCC(=O)N2CC(=O)Nc3ccccc32)cc1
1% | 0.2% | 9% | -6 | CC1(C)CC(=O)C2(CC3=C(CC(C)(C)CC3=O)O2)C(=O)C1
22% | -0.7% | -12% | . | COc1ccc(Cl)cc1NC(=O)NCC1CCN(Cc2cc(C)ccc2C)CC1
-14% | -3.5% | 5% | 1 | O=C(OCc1nnc(-c2ccc(Cl)cc2)o1)c1ccc(O)cc1
-17% | -5.2% | 6% | . | COc1cccc(Oc2cc(Cl)nc(N)n2)c1
0% | . | . | 2 | Nc1c(C(=O)NC2CCCCC2)c2nc3ccccc3nc2n1/N=C/c1ccco1
8% | -1.1% | -9% | -23 | COc1cc(/C=C/C(=O)Nc2ccc(N3CCCCC3)c(S(=O)(=O)Nc3ccccc3Cl)c2)cc(OC)c1OC
-2% | -1.1% | 4% | -9 | COC(CNC(=O)CC1C(=O)N(Cc2ccccc2)C(C)c2nc3ccccc3n21)OC (configuration not stated)
-35% | -2.7% | -12% | 7 | Clc1cccc(Nc2nc(-c3cccnc3)cs2)c1
-3% | 3.4% | 0% | -7 | COc1cccc(OCC(O)CO)c1 (configuration not stated)
7% | -0.1% | -6% | -2 | O=C(Nc1ccccc1C(=O)N1CCCCCC1)c1ccccc1
-42% | -0.7% | -10% | . | CC(=O)c1ccc(NC(=O)CCc2nnc3ccc(N4CCCC4)nn23)cc1
. | -1.2% | -25% | . | CCCCn1c(N)c(N(CCOC)C(=O)COC(=O)COc2cc(C)c(Cl)cc2C(C)C)c(=O)[nH]c1=O
-72% | 1.6% | 9% | -1 | C/C(=N\Nc1nc2ccccc2s1)c1ccc2c(c1)OCO2
0% | -0.4% | 28% | -2 | CCN(CC)C(=O)C1CCCN(Cc2cccc(Oc3ccccc3)c2)C1 (configuration not stated)
1% | -1.6% | -8% | . | COc1ccc2c(c1OC)C(=O)N1C2SC[C@H]1C(=O)NCCC(C)C (some centres not stated)
11% | -3.1% | 21% | -2 | O=C(NCc1ccco1)C(c1ccccc1)N(C(=O)Cc1cccs1)c1ccccc1F (configuration not stated)
-10% | -4.5% | -2% | . | NC(=O)c1ccccc1NC(=O)CSC1=NCCS1
-1% | 1.4% | -3% | 2 | Cc1[nH]nc(SCC(=O)NCCc2ccccc2)c1[N+](=O)[O-]
-1% | -0.7% | -4% | 12 | Cc1cc(NC(=O)c2ccc3c(c2)C(=O)N(C)C3=O)no1
? | 0.2% | 4% | 1 | O=C1CN(C(=O)Cn2ncc(Cl)c(Cl)c2=O)c2ccccc2N1
. | 1.0% | 24% | . | ON=C1c2ccccc2-c2ccc(Br)cc21
-38% | 1.6% | -2% | . | CC(C)CNc1nc(N)c([N+](=O)[O-])c(NCc2ccccc2)n1
-9% | -2.6% | 0% | 2 | CN1CCc2c(n(CC(O)CNCc3ccccc3)c3ccccc23)C1=O (configuration not stated)
0% | 5.6% | -4% | . | O=C(NCc1ccccc1F)C1CCC(=O)N(Cc2ccc(Cl)cc2)C1 (configuration not stated)
0% | -0.6% | 12% | 2 | Nn1c(SCc2ccc(Br)cc2)nnc1-c1cccnc1
0% | 0.1% | 0% | -7 | O=C(CCc1nc2ccccc2c(=O)[nH]1)OCC(=O)N1CCN(S(=O)(=O)c2ccccc2)CC1
. | -0.6% | 1% | . | O=[N+]([O-])c1ccc(Cl)c(S(=O)(=O)/N=C(/Nc2cccnc2)c2ccccc2)c1
-2% | 0.1% | 21% | -1 | Cc1cc(OCC(=O)Nc2cnn(CCCC(=O)O)c2)ccc1[N+](=O)[O-]
-13% | 0.0% | 7% | 3 | Cc1ccccc1C(=O)Nc1cccc(NC(=O)Cn2cnc3c(=O)n(C)c(=O)n(C)c32)c1

In the list so far, six contain a nitro group on carbon.
miR-21 reporter | Rango complex inh | Rango dissoc inh | GLA inh pH 4.5 | SMILES
0% | 8.9% | -22% | 2 | CCOC(=O)c1c(NC(=O)COC(=O)c2cc(OC)c(OC)cc2[N+](=O)[O-])sc(C)c1CC
1% | . | . | -12 | CC(C)N(C(=O)Cn1cnc2cc([N+](=O)[O-])ccc2c1=O)C(C)C
-1% | 1.4% | -3% | 2 | Cc1[nH]nc(SCC(=O)NCCc2ccccc2)c1[N+](=O)[O-]
-38% | 1.6% | -2% | . | CC(C)CNc1nc(N)c([N+](=O)[O-])c(NCc2ccccc2)n1
. | -0.6% | 1% | . | O=[N+]([O-])c1ccc(Cl)c(S(=O)(=O)/N=C(/Nc2cccnc2)c2ccccc2)c1
-2% | 0.1% | 21% | -1 | Cc1cc(OCC(=O)Nc2cnn(CCCC(=O)O)c2)ccc1[N+](=O)[O-]

(list continues)
miR-21 reporter | Rango complex inh | Rango dissoc inh | GLA inh pH 4.5 | SMILES
-1% | ? | -10% | 10 | CSc1ccccc1NC(=O)Cc1ccccc1[N+](=O)[O-]
. | -0.5% | -1% | . | O=C(CN(c1ccccc1)S(=O)(=O)c1ccc(F)cc1)NCc1cccs1
0% | ? | 1% | -1 | Cc1ccnc(NC(=O)CCC(=O)N(CC(=O)NC2CCCCC2)CC2CCCO2)c1 (configuration not stated)
-2% | 1.0% | -4% | . | CC(C)(C)n1nc2c(c1NC(=O)c1ccc([N+](=O)[O-])cc1)CS(=O)(=O)C2
-7% | -2.1% | -2% | 9 | CN(CC(=O)NC1CCCCC1)S(=O)(=O)c1ccc(Br)s1
. | -4.2% | 9% | . | Cc1cc(C)n(-c2cc(N3CCN(C(=O)c4ccccc4C)CC3)ccc2[N+](=O)[O-])n1
1% | 1.9% | 10% | 3 | CCOc1cc(N2CCOCC2)c(OCC)cc1NCC(=O)N1CCN(Cc2ccccc2)CC1
-17% | -3.5% | -15% | . | Cc1ccc2c(NC(=O)c3ccc(Br)o3)cccc2n1
. | 3.8% | 16% | . | COc1cccc2c1CCC1=CC(=O)CCC12C (configuration not stated)
. | -5.0% | 6% | . | CC(=O)Nc1ccc(S(=O)(=O)NCCC(=O)OCC(=O)NNC(=O)c2ccccc2)cc1
-3% | 0.6% | -4% | . | CC12CCC(=O)N1C(C(=O)NCCc1ccccc1)CS2 (configuration not stated)
-24% | 3.4% | 12% | -26 | O=C(NC1CCc2ccccc21)c1cc(COc2c(F)cccc2F)on1 (configuration not stated)
-6% | -1.0% | 9% | . | COc1ccc2oc(C(=O)OCC(=O)NC(=O)c3ccccc3)c(C)c2c1
. | 0.4% | 4% | . | CC(C)CN(C(=O)COC(=O)c1ccccn1)c1c(N)n(Cc2ccccc2)c(=O)[nH]c1=O
-3% | 2.8% | -3% | 4 | CC(C(=O)N1CCOCC1)(c1ccccc1)c1ccccc1
. | -0.6% | ? | . | Cc1c(NS(=O)(=O)c2cc(C(=O)NCc3cccnc3)ccc2Cl)c(=O)n(-c2ccccc2)n1C
-38% | 2.4% | -7% | . | O=C(NCc1ccco1)c1cc2cc(Br)ccc2o1
-3% | -1.7% | 0% | . | CCCc1ccc2oc(C(=O)N3CCC(C(N)=O)(N4CCCCC4)CC3)c(C)c2c1
-24% | -0.9% | 6% | -1 | COc1ccc2nc(NC(=O)C3CCCO3)sc2c1 (configuration not stated)
13% | -0.5% | 1% | . | Cc1cccc(-n2ncc3c2CCCC3NC(=O)c2ccc[n+]([O-])c2)c1C (configuration not stated)
11% | 5.8% | 13% | 5 | CCC(CC)c1nc(C#N)c(NC(C)c2ccccc2)o1 (configuration not stated)
3% | 4.8% | -10% | 1 | Cc1ccc(Cl)cc1NC(=O)CCC(=O)O
-6% | -0.1% | -10% | 9 | CCCCOC(=O)Nc1nnc(-c2ccccc2OC)s1
-1% | -1.4% | 1% | -25 | O=C(N/N=C/c1ccc(OC(=O)c2ccccc2)cc1)c1ccc(CN2CCOCC2)cc1
-2% | -2.3% | 7% | 3 | Cc1cccc(C)c1-n1c(C)nn(CCOc2ccccc2)c1=O
25% | -4.5% | 2% | -11 | O=C(CN1CCC(C(O)(c2ccccc2)c2ccccc2)CC1)Nc1ccccc1
2% | -2.3% | -1% | -8 | COc1ccc(C2CC(c3ccc(Br)cc3)=NN2C(=O)CN2CCCC2)cc1 (configuration not stated)
-12% | -4.8% | 20% | 0 | c1ccc(Cc2nnc3sc(-c4ccco4)nn23)cc1
-1% | -1.3% | 4% | . | O=C(CN1C(=O)COc2ccccc21)NCCN1CCCC1
. | -2.6% | -3% | . | CC(=O)c1ccc(-c2ccc(C(=O)N(C)Cc3nc4ccccc4c(=O)[nH]3)o2)cc1
0% | 0.8% | -5% | -2 | O=C(NCc1ccccc1Cl)NCc1ccccc1Cl
1% | 6.1% | -10% | . | COc1ccc(N2C(=O)N3[C@H](c4ccc(Cl)cc4)[C@@H]4C(=O)N(C5CCCCC5)C(=O)[C@@H]4[C@]3(Cc3ccc(Cl)cc3)C2=O)cc1
. | 2.3% | 2% | . | COc1ccc(C2=CC(=O)C[C@H](c3ccc(F)cc3)C2)c(OC)c1
. | -0.6% | 1% | . | COc1ccc(CNC(=O)COC(=O)C(CCSC)NC(=O)c2ccco2)cc1OC (configuration not stated)
-1% | 0.7% | ? | 0 | O=C(CNC(=O)C(c1ccccc1)c1ccccc1)N/N=C/c1ccc(O)c([N+](=O)[O-])c1
-2% | 0.7% | 9% | -6 | CCOc1cc(S(=O)(=O)NCc2cccnc2)c(C)cc1C
-2%&22% | 1.2% | 5% | . | CCOc1ccc(OCC)c(NC(=O)C2CCCN(S(=O)(=O)c3ccc(C)cc3)C2)c1 (configuration not stated)
13% | -0.6% | 6% | -2 | CCn1c2ccccc2c2cc(/C=N/n3c(C)nnc3C)ccc21

High-throughput results: PubChem, National Center for Advancing Translational Sciences (NCATS)
